PGK inhibitor: blocks T. brucei phosphoglycerate kinase. PGK/GAPDH coupled, Kinase-Glo luminescence, 60 min. Potency, µM (series often up to 57.5 µM), inactives show top-dose activity change, negative = inhibition, hits mostly inhibitors. 0.043% of 380,000 active. AID 602233; further: on the % scale 0 is the no-effect control and ±100 the full control effect; nearly all actives have a fitted effect of over 60% in size
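Recombinant glycosomal PGK reaction used 1,3-bisphosphoglycerate generated in-well by GAPDH (100nM final) in 100mM TEA pH 7.6, 5mM MgCl2, 0.01% Tween-20. After 60 minutes at room temperature, ATP was read by Kinase-Glo Plus luminescence end-point.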
G9a block: G9a (human) methyltransferase inhibition. Q96KQ7. G9a H3K9 monomethylation, AlphaScreen, 2 h. Potency, µM (top dose mostly 102 µM), for inactives: at the highest dose activity, negative = inhibition, most hits filed as inhibitors. 8.8% of 350,000 active. AID 504332; further: on the % scale 0 is the no-effect control and ±100 the full control effect; nearly all actives have a fitted effect of over 75% in size
Target sequence (Q96KQ7 913-1193 limits assumed): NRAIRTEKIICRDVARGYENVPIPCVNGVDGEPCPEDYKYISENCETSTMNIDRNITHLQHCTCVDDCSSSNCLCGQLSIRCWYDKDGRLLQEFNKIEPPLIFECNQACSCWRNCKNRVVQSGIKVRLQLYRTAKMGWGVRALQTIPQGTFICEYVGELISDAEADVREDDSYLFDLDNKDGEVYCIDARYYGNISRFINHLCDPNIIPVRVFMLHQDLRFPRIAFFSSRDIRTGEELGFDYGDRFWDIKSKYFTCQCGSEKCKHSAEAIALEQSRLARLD
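Chemiluminescent proximity detection of H3K9 monomethylation, read after 10 min bead incubation in the dark. Reaction: 20 nM G9a, 500 nM biotin-H3K9 peptide, 20 uM SAM cofactor, 2 h, room temperature, following 15 min enzyme-compound preincubation.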
POLI inh: inhibitors of human DNA polymerase iota; Q9UNA4; Pol iota fluorescent replication assay, 10 min; Potency, µM (doses to about 115 µM), without a hit: at the highest dose activity, negative = inhibition, actives largely listed as inhibitors; 1% of 390,000 active; AID 588590
Target sequence (Q9UNA4 whole entry, looked up): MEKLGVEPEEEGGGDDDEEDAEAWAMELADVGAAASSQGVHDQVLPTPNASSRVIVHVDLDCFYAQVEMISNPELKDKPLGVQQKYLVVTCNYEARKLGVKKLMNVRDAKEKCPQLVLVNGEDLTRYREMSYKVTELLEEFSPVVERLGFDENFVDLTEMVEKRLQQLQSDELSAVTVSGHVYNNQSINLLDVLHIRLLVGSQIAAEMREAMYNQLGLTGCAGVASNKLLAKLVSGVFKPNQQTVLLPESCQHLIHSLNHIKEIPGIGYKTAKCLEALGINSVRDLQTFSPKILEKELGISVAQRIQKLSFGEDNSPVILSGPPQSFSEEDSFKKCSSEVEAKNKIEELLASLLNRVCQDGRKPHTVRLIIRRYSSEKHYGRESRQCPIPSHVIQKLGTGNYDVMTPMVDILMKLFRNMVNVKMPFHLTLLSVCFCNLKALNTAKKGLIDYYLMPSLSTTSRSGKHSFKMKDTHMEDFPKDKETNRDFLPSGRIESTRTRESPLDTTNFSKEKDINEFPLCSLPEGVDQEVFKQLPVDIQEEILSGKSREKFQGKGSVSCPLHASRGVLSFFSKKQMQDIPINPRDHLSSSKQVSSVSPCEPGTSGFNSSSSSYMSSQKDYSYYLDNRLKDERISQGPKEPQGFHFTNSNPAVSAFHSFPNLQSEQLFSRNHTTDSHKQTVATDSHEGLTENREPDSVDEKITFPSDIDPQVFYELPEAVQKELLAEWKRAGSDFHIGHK
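Pol iota at 10 nM preincubated 15 min with compounds at room temperature; reaction started with fluorescent substrate, 50 nM final. Fluorescence read kinetically at 0 and 10 min; buffer-only wells as negative control.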
GLS inhibitor: inhibitors of human glutaminase (GLS); AID 624170; 0.21% of 410,000 active; GLS enzymatic activity, qHTS titration; Potency, µM (top dose mostly 45.5 µM), inactives show at the top dose activity change, negative = inhibition, usual class: inhibitors; O94925; further: on the % scale 0 is the no-effect control and ±100 the full control effect
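hKGA in 45 mM KH2PO4 (pH 8.2), 0.02% Tween-20 with compound, then 1mM L-Glutamine (stock as added) plus glutamate oxidase/HRP/Amplex red coupling mix. Fluorescence read initially and after 30 min at RT; signal change reflects glutamate formation.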
BLM helicase inh: inhibitors of human Bloom syndrome helicase BLM | P54132 | recombinant BLM DNA unwinding, fluorescence dequenching | Potency, µM (doses to about 56.1 µM), inactives show at the top dose activity change, negative = inhibition, usual class: inhibitors | 0.2% of 350,000 active | AID 2528;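 further: plate controls were vehicle for no effect and no enzyme for full effect; nearly all actives have a fitted effect of over 35% in size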
Pin1 inhibitor: blocks the human prolyl isomerase Pin1 | Pin1 FP peptide displacement, HiFluor488, 10 min | Potency, µM (series often up to 115 µM), without a hit: at the highest dose activity, negative = inhibition, usual class: inhibitors | Q13526 | 0.009% of 390,000 active; active means well fitted inhibition curve with a large enough effect in the polarisation, with a control signal flat, not every such curve was filed as active; inconclusive means small, poorly fitted or top-dose-only effect, or effect the other way, or a change in a side signal; inactive means no such curve, though single readings can be large or run the other way; the % refers to the polarisation; further: on the % scale 0 is the no-effect control and ±100 the full control effect
* hit, by the source's call; i = inactive; ? = inconclusive; . = no result given; & = joins results of further samples; [ ] = another dose, or the depositor's remark. Unless noted, the call rests on the fitted dose curve; in most records, active means well fitted curve in the direction sought with a large enough effect; inconclusive means small, poorly fitted or top-dose-only effect, or another doubt; inactive means no such curve, though single readings can be large; an effect the other way counts as inactive or inconclusive. Potency means the concentration at half of the fitted maximal effect. Only part of the results is shown, so the mix of outcomes need not match the whole.

no.	Structure	GLS inhibitor	G9a block	BLM helicase inh	POLI inh	Pin1 inhibitor	PGK inhibitor
1	C/C(=N/NC(=O)c1ccccn1)c1ccncc1	-3.3%	2.82µM*	-0.5%	78.6%[activator]	-0.8%	-2.3%
2	Cn1c2c(c3ccccc31)CCN1CCC[C@]21c1ccccc1	15.2%	39.8µM*	-4.3%	?	3.8%	-10.5%
3	CCC(CC)c1nnc(NC(=O)c2nc3nc(C)cc(C)n3n2)s1	6.7%	5.62µM*	-3.0%	-7.0%	8.8%	-1.9%
4	CN1CCN(CCOCCOc2ccc(Br)cc2Cl)CC1	0.3%	.	4.4%	-3.3%	-8.8%	-5.2%
5	CCOC(=O)N1CCN(CCCc2ccccc2)CC1	3.3%	.	1.9%	30.8%[activator]	5.9%	4.1%
6	Cc1cc(C)cc(NC(=O)C(NCC2CCCO2)c2ccccc2)c1 (stereo unspecified)	-11.1%	2.82µM*	-9.5%	10.3%	-6.1%	i
7	COCCNC(=S)NN=C1CCCCC1	-38.1%	3.16µM*	-2.4%	130.7%[activator]	-1.0%	i
8	CN(Cc1ccccc1)C(=O)C1CCCN(Cc2ccc(Cl)cc2)C1 (stereo unspecified)	7.8%	6.31µM*	1.3%	-10.7%	-5.1%	i
9	CS/C(N)=N/N=C/c1ccc([N+](=O)[O-])cc1	11.0%	.	0.2%	12.8%	-12.1%	-0.2%
10	Cc1ccc(NCc2ccco2)cc1C	5.7%	4.47µM*	-3.3%	26.9%	6.4%	-1.5%
11	COc1ccc(-c2nnc(NC(=O)c3ccc([N+](=O)[O-])o3)o2)c(OC)c1	6.4%	22.4µM*	-1.8%	-12.5%	-0.9%	-0.7%
12	CCOc1ccc(-c2cnc(NCc3ccc(C(F)(F)F)cc3)n2C)cc1	3.6%	10µM*	-5.1%	5.1%	0.2%	-11.0%
13	COc1cc(OC)cc(-c2c(-c3cccs3)c3cc(-c4ccn[nH]4)ccc3n2C)c1	18.6%	10.3%[0.501 µM]	.	64.8%[activator]	-2.0%	7.2%
14	O=C1c2cccc3c(Nc4ccccc4Cl)c([N+](=O)[O-])cc(c23)C(=O)N1CCO	3.9%	.	-9.6%	-44.5%	-2.0%	-6.7%
15	CN1CCN(CC(=O)Nc2ccccc2Sc2ccccc2)CC1	0.7%	?	-1.9%	-2.2%	-7.4%	1.1%
16	COc1ccc(CNC2CCCCC2)cc1	2.0%	?	1.5%	28.5%	-10.5%	i
17	O=C(CN1CCOCC1)Nc1c2c(nc3ccccc13)N(Cc1ccccc1)CC2	-3.1%	?	4.1%	-1.1%	-19.1%	i
18	COc1ccc(CN2COc3ccc4c(oc(=O)c5ccccc54)c3C2)cc1OC	-5.7%	0.794µM*	26.7%	5.8%	1.4%	-4.6%
19	CC(C)CCN1CCN(C/C=C/c2ccco2)CC1CCO (stereo unspecified)	0.5%	.	-3.3%	14.1%	-9.1%	i
20	CCOC(=O)C1CCCN(Cc2ccc(O)c(OC)c2)C1 (stereo unspecified)	.	6.31µM*	0.4%	15.3%	-2.4%	-6.2%
21	CCCC(=O)Nc1nc(C)c(-c2csc(Nc3cc(OC)ccc3OC)n2)s1	5.8%	?	-19.0%	34.0%[activator]	13.4%	i
22	O=C(CS(=O)(=O)c1ccccc1)Nc1nnc(-c2cccs2)o1	-3.2%	-18.2%	.	3.7%	9.7%	-5.8%
23	Cn1c(-c2ccc(Br)cc2)cnc1NCc1cccnc1	13.7%	-11.5%[0.0925 µM]	-1.4%	-0.7%	0.7%	-8.5%
24	C/C(=N\Nc1ccc([N+](=O)[O-])cc1[N+](=O)[O-])C(C)C(C)C (stereo unspecified)	0.2%	10µM*	-10.9%	-2.4%	?	-0.8%
25	COC(=O)c1ccc(NC(=O)CNCc2ccncc2)cc1	-11.2%	3.16µM*	0.7%	-6.0%	27.9%	-9.3%
26	Clc1ccccc1CN1CCC(Cc2ccccc2)CC1	-0.1%	10µM*	0.8%	-0.2%	5.5%	i
27	O=C(c1ccco1)N1CCN(Cc2cccc(F)c2)CC1	12.7%	?	4.4%	-2.0%	-2.6%	-3.0%
28	COC(=O)[C@H](C(C)C)N(Cc1ccccc1)S(=O)(=O)CCNC1CCCC1	-5.2%	.	.	13.8%	-7.7%	0.0%
29	Cc1c(/N=C/c2ccco2)n(Cc2ccccc2)c2ccccc12	-6.6%	39.8µM*	-4.3%	4.4%	-3.2%	i
30	O=C(c1cccc2ccccc12)N1CCN(CC2CC=CCC2)CC1 (stereo unspecified)	2.2%	?	-1.2%	4.7%	-0.4%	-7.6%[11.5 µM]
31	COc1cccc(CN(C)CC(=O)Nc2cccc3ccccc23)c1	4.9%	10µM*	-1.0%	152.3%[activator]	-1.8%	-0.2%
32	CC(=O)c1ccc(N/N=C(/C(N)=O)C2=NC(C)(C)Cc3ccccc32)cc1	-0.7%	11.2µM*	0.2%	28.6%	-0.3%	-2.4%
33	c1ccc(-c2nnc3n2N=C(c2ccc4c(c2)OCO4)CS3)nc1	12.1%	?	4.0%	16.5%	-3.3%	i
34	O=C(Nc1nccs1)c1nc[nH]c1C(=O)N1CCc2ccccc2C1	-0.2%	12.6%[0.501 µM]	.	13.8%	2.8%	1.8%
35	Cc1ccc(S(=O)(=O)N2CCN(CCc3ccccc3)CC2)c(C)c1	-0.2%	44.7µM*	-3.7%	131.7%[activator]	-11.6%	i
36	O=C(c1ccc(COc2c(F)c(F)c(F)c(F)c2F)o1)N1CCN(Cc2ccc3c(c2)OCO3)CC1	-5.7%	?	-10.3%	?	-0.2%	-2.9%
37	CN1CCN(C(=O)Nc2ccccc2)CC1	-2.9%	2.24µM*	-5.3%	-2.4%	-2.2%	-4.5%
38	CC1CCC/C(=N/Nc2ccc([N+](=O)[O-])cc2[N+](=O)[O-])C1 (stereo unspecified)	7.4%	7.94µM*	-3.3%	12.4%	-0.9%	-3.9%
39	COc1ccc(Nc2nc(Nc3ccc(OC)cc3OC)nc(N3CCN(C)CC3)n2)c(OC)c1	13.5%	12.6µM*	-2.8%	246.6%[activator]	2.3%	-8.5%
40	COc1ccccc1N1CCN(CC(=O)N2CCCC2)CC1	5.0%	-121.6%[12.7 µM]	-0.3%	77.4%[activator]	3.4%	-2.4%

Compound profiles (already shown). Screens in order: GLS inhibitor, G9a block, BLM helicase inh, POLI inh, Pin1 inhibitor, PGK inhibitor
`O=C(c1ccc(COc2c(F)c(F)c(F)c(F)c2F)o1)N1CCN(Cc2ccc3c(c2)OCO3)CC1` is listed as -5.7%, ?, -10.3%, ?, -0.2%, -2.9%
`COc1ccc(Nc2nc(Nc3ccc(OC)cc3OC)nc(N3CCN(C)CC3)n2)c(OC)c1` is listed as 13.5%, 12.6µM*, -2.8%, 246.6%[activator], 2.3%, -8.5%
`CC(=O)c1ccc(N/N=C(/C(N)=O)C2=NC(C)(C)Cc3ccccc32)cc1` is listed as -0.7%, 11.2µM*, 0.2%, 28.6%, -0.3%, -2.4%

Later entries
no.	Structure	GLS inhibitor	G9a block	BLM helicase inh	POLI inh	Pin1 inhibitor	PGK inhibitor
41	Cc1ccccc1Nc1nc(N)nc(C)c1Br	-2.0%	.	.	27.7%	-2.7%	4.6%
42	CC(=O)Nc1ccc(S(=O)(=O)N2CCN(Cc3cccnc3)CC2)cc1	-2.1%	?	-0.3%	17.8%	-7.9%	.
43	CC(=O)Nc1ccccc1NC(=O)C/C(C)=N/NC(=O)c1ccccn1	26.6%	2.8%[12.7 µM]	0.7%	25.5%	-3.5%	-7.9%
44	Cc1ccc(CCN=c2c([N+](=O)[O-])nn(-c3ccccc3)n2O)cc1	-1.2%	31.6µM*	-3.3%	91.9%[activator]	1.9%	-0.1%
45	CCOC(=O)c1cc(S(=O)(=O)NCc2ccccc2)[nH]n1	-12.8%	3.55µM*	0.1%	-7.0%	-3.0%	-0.1%
46	Cc1ccc(C(C)C)c(OCCCn2ccnc2C)c1	-2.2%	10µM*	-5.0%	68.2%[activator]	-16.6%	-4.1%
47	CN1CCN(c2nc(-c3ccc(Cl)s3)cs2)CC1	0.0%	44.7µM*	-11.4%	56.2%[activator]	-14.3%	i
48	CC(NCc1cccs1)C(=O)Nc1cc(Cl)cc(Cl)c1 (stereo unspecified)	13.7%	5.01µM*	-5.5%	2.7%	-13.3%	-1.9%
49	Cc1ccc([N+](=O)[O-])cc1NC(=O)CN(C)CCOc1ccccc1	5.5%	3.16µM*	-2.1%	12.1%	20.8%	-1.8%
50	COc1ccc(CNCc2cc3c(cc2[N+](=O)[O-])OCO3)cc1	-21.0%	10µM*	0.1%	100.9%[activator]	0.2%	-0.7%
51	CCCn1cnc2c(=S)nc(N)[nH]c21	-27.8%	.	-1.2%	30.1%[activator]	-0.6%	4.8%
52	Cc1ccccc1CN1CCN(C(=O)c2ccc(F)cc2)CC1	0.0%	.	0.0%	28.6%	-6.0%	i
53	CN(CC(=O)Nc1ccccc1Oc1ccccc1)Cc1ccccc1F	-3.0%	10µM*	-8.4%	49.0%[activator]	-13.3%	-1.5%
54	CCOC(=O)N1CCN(C(=O)C2CCN(Cc3ccc(O)c(OCC)c3)CC2)CC1	-2.3%	7.08µM*	-0.7%	40.7%[activator]	-2.5%	-1.0%
55	CCc1nnc(NC(=O)c2cnccn2)s1	-7.8%	?	-0.2%	16.2%	-6.2%	1.2%
56	CC(NCc1ccc2c(c1)OCO2)C(=O)NC1CCCc2ccccc21 (stereo unspecified)	-8.2%	?	3.0%	13.1%	-4.2%	i
57	O=C(CN1CCN(c2ncccn2)CC1)N(Cc1ccccc1)c1ccc(F)cc1	9.2%	-49.0%[12.7 µM]	0.6%	3.7%	-1.2%	-1.6%[11.5 µM]
58	CC(NCC(=O)Nc1ccccc1C(=O)NC1CC1)c1ccc(S(N)(=O)=O)cc1 (stereo unspecified)	1.0%	?	.	-8.9%	-15.2%	2.8%
59	COc1cccc(CN2CCN(C(=O)c3ccc(-c4ccccc4)cc3)CC2)c1OC	4.1%	.	-4.1%	24.2%	-4.4%	i
60	CCOC(=O)C1CCN(Cc2ccc(Cl)c(Cl)c2)CC1	0.0%	0.5%[12.7 µM]	-1.0%	-6.6%	3.7%	.

Ordered by the number under Pin1 inhibitor (falling): 3 of the compounds above
No.	canonical_smiles	GLS inhibitor	G9a block	BLM helicase inh	POLI inh	Pin1 inhibitor	PGK inhibitor
57	O=C(CN1CCN(c2ncccn2)CC1)N(Cc1ccccc1)c1ccc(F)cc1	9.2%	-49.0%[12.7 µM]	0.6%	3.7%	-1.2%	-1.6%[11.5 µM]
54	CCOC(=O)N1CCN(C(=O)C2CCN(Cc3ccc(O)c(OCC)c3)CC2)CC1	-2.3%	7.08µM*	-0.7%	40.7%[activator]	-2.5%	-1.0%
56	CC(NCc1ccc2c(c1)OCO2)C(=O)NC1CCCc2ccccc21 (stereo unspecified)	-8.2%	?	3.0%	13.1%	-4.2%	i

Other compounds
no.	Structure	GLS inhibitor	G9a block	BLM helicase inh	POLI inh	Pin1 inhibitor	PGK inhibitor
61	COc1cc(NC(=O)c2ccc(N)nc2)cc(C(=O)Nc2cccc(C(F)(F)F)c2)c1	-4.2%&-0.2%	-50.6%[59 µM]	-9.2%	?	5.4%	7.0%&-3.5%
62	O=C(CNC1CC1)Nc1cc(C(F)(F)F)ccc1Cl	7.1%	.	-2.1%	18.6%	-6.7%	-5.6%
63	CC1CCN(c2ccc(C(=O)NCc3ccco3)cc2[N+](=O)[O-])CC1	4.8%	25.1µM*	-16.7%	-3.9%	?	-6.8%
64	Cc1ccccc1C(OCC(O)CN1CCN(CCO)CC1)c1ccccc1 (stereo unspecified)	0.6%	7.94µM*	5.9%	?	-6.5%	-3.5%

Assay outcomes deposited in PubChem BioAssay by National Center for Advancing Translational Sciences (NCATS).
